rRNA inh HTS: reduced GFP signal of wild-type E. coli, primary screen, bacterial rRNA inhibitor project, GFP/RFP fluorescence, OD600, single point. E. coli WT GFP vs humanized-ribosome RFP mutants, 24 h; hits give low values; DMSO median 0, no signal -100. GFP signal change (wild-type ribosome), % (test concentration not listed). 1.6% of 350,000 active. AID 720706, 2013;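 active = significant combined selectivity score with lowered wild-type GFP, culture density cut under 30%, mutant RFP and density less affected; inactive = any of these conditions unmet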; note: one replicate is shown; some compounds called inactive have numbers as strong as hits
LANA-H2B inh: blockers of LANA interaction with H2A/H2B – biochemical, FP readout, HTS, primary screen. Protein LANA1 (Human herpesvirus 8 type P (isolate GK18)), Q9QR71. cell-free LANA-H2A/H2B peptide, fluorescence polarization. inhibition, % (concentration not given with the values). 0.6% of 320,000 active; in the data active = inhibition mostly above about 10%, no sharp cut-off; inactive = mostly below about 6.7%;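 note: stock transfer was 7.5 nL into about 10 µL; 0% = median of vehicle wells and 100% = median of positive control wells; one replicate is shown; the record names a cut of 25% in any replicate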
Target sequence (Q9QR71 whole entry, looked up): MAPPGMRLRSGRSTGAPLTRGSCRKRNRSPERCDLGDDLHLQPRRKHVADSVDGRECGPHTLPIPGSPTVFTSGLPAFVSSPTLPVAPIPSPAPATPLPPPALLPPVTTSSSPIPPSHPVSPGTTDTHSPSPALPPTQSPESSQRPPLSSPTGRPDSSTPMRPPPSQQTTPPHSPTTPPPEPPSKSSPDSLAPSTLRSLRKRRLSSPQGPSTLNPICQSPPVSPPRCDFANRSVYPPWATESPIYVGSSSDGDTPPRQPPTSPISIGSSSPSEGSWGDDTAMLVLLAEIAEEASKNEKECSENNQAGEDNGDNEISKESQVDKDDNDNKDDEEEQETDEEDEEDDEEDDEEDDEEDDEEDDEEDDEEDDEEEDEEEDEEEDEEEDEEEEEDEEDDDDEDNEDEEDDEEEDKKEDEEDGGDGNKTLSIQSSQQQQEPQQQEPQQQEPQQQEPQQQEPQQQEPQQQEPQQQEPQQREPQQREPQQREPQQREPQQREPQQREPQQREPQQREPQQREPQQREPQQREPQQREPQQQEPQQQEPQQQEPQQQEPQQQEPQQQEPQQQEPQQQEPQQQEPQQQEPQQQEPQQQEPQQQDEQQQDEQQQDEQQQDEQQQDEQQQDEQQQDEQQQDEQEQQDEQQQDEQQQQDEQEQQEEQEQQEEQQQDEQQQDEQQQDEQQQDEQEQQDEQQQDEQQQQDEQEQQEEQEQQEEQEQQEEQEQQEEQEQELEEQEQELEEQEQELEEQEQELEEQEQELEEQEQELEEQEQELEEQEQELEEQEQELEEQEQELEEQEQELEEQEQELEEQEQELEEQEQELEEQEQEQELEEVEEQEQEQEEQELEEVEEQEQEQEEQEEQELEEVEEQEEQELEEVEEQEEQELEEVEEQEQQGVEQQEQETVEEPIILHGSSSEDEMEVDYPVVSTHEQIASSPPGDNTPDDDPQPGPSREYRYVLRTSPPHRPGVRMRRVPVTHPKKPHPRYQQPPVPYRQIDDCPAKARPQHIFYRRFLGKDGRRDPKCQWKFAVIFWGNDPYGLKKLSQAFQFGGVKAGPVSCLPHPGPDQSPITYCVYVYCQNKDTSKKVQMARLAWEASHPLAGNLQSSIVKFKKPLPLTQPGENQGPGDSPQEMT
Beta apoptosis: inhibitors of cytokine-induced beta cell apoptosis, primary screen, luminescence; INS-1E cytokine-induced death, ATP luminescence, 48 h; percent of positive-control rescue, neutral wells zero; protection from apoptosis, % (no concentration beside the values); 0.8% of 300,000 active; AID 435005, 2010;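 active = all replicates at 75% or more, or half of them and the mean; inconclusive = half reach 75% but not the mean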;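 note: 0% = cytokine-treated negative control wells and 100% = positive control rescue; higher means more ATP so stronger rescue from cytokine killing; wells of about 40 µL received 100 nL stock; the first replicate is given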
A1 inh: caspase 3/7 activation in MEF A1-2A-BIM cells, primary screen, A1 inhibitor project, cell-based, luminescence, HTS; Caspase-Glo 3/7 luminescence, 3 h; percent of clofoctol response, vehicle zero; caspase activation, % (concentration not given with the values); 0.066% of 330,000 active; AID 2462, 2010;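 active = over half of replicate activation scores above 10%, or exactly half above 10 with the replicate mean above 10; inconclusive = replicate mean below 10 yet half the replicates above 10; inactive = over half of replicates below 10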;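 note: wells of about 30 µL received 50 nL stock; many hits fall short of the cut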
Beta2AR agonist: beta2AR agonists driving receptor internalization, primary screen, cell-based, FAP fluorogen, flow cytometry. Beta-2 adrenergic receptor (Homo sapiens), P07550. Am2.2-beta2AR cells; reference of the scale not given here. response, % (concentration not given with the values). 0.43% of 340,000 active. AID 504454, 2011;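 active = response above a set limit, near 3 SD of response in nonfluorescent compounds, cut at about 42% in these data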;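 note: stock transfer was 100 nL into about 11 µL; a reference agonist was the positive control; negative values mostly stem from fluorescent compounds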
ALR H2O2 inh: inhibitors of human ALR sulfhydryl oxidase, primary screen, biochemical, H2O2 detection, HRP-luminol luminescence, single point | FAD-linked sulfhydryl oxidase ALR (Homo sapiens), P55789 | purified ALR, DTT oxidation | inhibition, % (no concentration beside the values) | 3.8% of 290,000 active | AID 485317, 2010;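 active = mean and each replicate at 75% or more; inconclusive = only one of the two met; inactive = neither met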;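 note: stock transfer was 7.5 nL into about 7.5 µL; 0% = neutral wells and 100% = wells with inactivated enzyme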
T cruzi inh: inhibitors of intracellular T. cruzi growth, primary screen, luminescence, NIH3T3 host cells. T. cruzi beta-gal in NIH3T3, 90 h. inhibition, % (no concentration beside the values). 1.4% of 300,000 active. AID 1885, 2009;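 active = mean inhibition across valid replicates above about 55%, limit read from the data; inconclusive = mean below that limit but half or more replicates reach it; inactive = mean below it, under half of replicates reach it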;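 note: signal also drops with host cell toxicity which is not excluded here; 0% = plate median of DMSO wells and 100% = zero luminescence signal; higher percent means less beta-gal luminescence so fewer parasites; stock transfer was 50 nL into about 50 µL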
Calb FLC: C. albicans growth inhibition with fluconazole, primary screen, CaCi-2 strain, Alamar Blue fluorescence; growth inhibition, % (concentration not given with the values); 0.57% of 300,000 active; C. albicans CaCi-2 (fluconazole-resistant clinical isolate) + fluconazole, 48 h;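 active = most replicates above 75%; inconclusive = exactly half above 75%; inactive = most below 75%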;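 note: all wells also contain fluconazole at 8 µg/ml as a sub-toxic cotreatment; 0% = median of DMSO wells and 100% = median of geldanamycin control wells; wells of about 8 µL received 7.5 nL stock; the first replicate is given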
rRNA inh HTS OD600: also measured in rRNA inh HTS; calls as there; OD600 change, %; measured here: OD600 growth;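 optical density of the mix in the first replicate; 0 = DMSO median and -100 = no signal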
rRNA inh HTS RFP: also measured in rRNA inh HTS; calls as there; RFP signal change, %; measured here: RFP humanized mutant strains;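 first replicate; 0 = DMSO median and -100 = no signal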
An asterisk follows results filed as active; ? = inconclusive; . = not tested or not shown; & = joins results of further samples.

Every second line gives: rRNA inh HTS	rRNA inh HTS OD600	rRNA inh HTS RFP	LANA-H2B inh	Beta apoptosis	A1 inh	Beta2AR agonist	ALR H2O2 inh	T cruzi inh	Calb FLC
1. Cc1ccc2nc(NCC(N)=O)nc(-c3ccccc3)c2c1
  3.3	2.3	1.0	1.4	0.0	-0.7	.	-6.3	.	3.2
2. CC(C)c1ccc(-c2cc(C(=O)NN3CCN(C)CC3)c3ccccc3n2)cc1
  .	.	.	2.0	5.3	-0.2	4.5	10.0	24.0	-24.2
3. O=C(Nc1ccccc1N1CCOCC1)C1CCN(S(=O)(=O)c2ccc(F)cc2)CC1
  .	.	.	-2.0	-0.8	1.2	2.0	-5.2	-5.9	-5.7
4. Cc1cc(Nc2ccc3c(c2)OCCO3)n2nc(C)nc2n1
  5.0	0.2	-0.9	7.3	-1.6	-0.9	1.0	.	-3.8	2.7
5. CCOc1ccccc1NC(=O)CN(c1ccc(C)cc1)S(=O)(=O)c1c(C)n[nH]c1C
  .	.	.	-1.5	2.0	-0.1	-2.5	-5.4	9.9	9.3
6. Cc1nc(N(CCO)C2CCCCC2)c2nnn(Cc3ccccc3)c2n1
  -16.3	-18.0	5.5	2.2	2.6	-0.2	2.8	-24.2	13.5	5.9
7. CCCCNC(=O)CCc1nc2cccnc2n1Cc1ccccc1
  2.1	9.9	-0.7	2.0	-5.9	0.0	-7.8	2.3	-11.4	21.2
8. CN(C(=O)c1cccc(NC(=O)C2CCCN(C(=O)OC(C)(C)C)C2)c1)C1CCC1 (centres undefined)
  -17.2	-14.1	-10.2	4.4	1.7	0.0	-4.1	-1.7	.	.
9. COCCn1c(=O)c2c(nc3n2CCCN3CCc2ccc(OC)c(OC)c2)n(C)c1=O
  7.7	13.2	1.2	2.9	-9.4	-0.2	6.3	15.2	-0.5	-12.5
10. Cc1nc(C(F)(F)F)ccc1C(=O)Nc1ccccc1N1CCOCC1
  2.9	6.7	-0.5	-5.0	-0.3	0.1	2.5	-5.4	-5.8	-1.9
11. CCOC(=O)C1CCN(CCC(=O)Nc2ccc(C)c(C)c2)CC1
  15.5	9.9	-0.2	0.8	1.3	1.9	-4.8	1.5	.	-29.8
12. O=C(CNC(=O)c1ccc(OC(F)F)cc1)NCC1CCCO1 (centres undefined)
  7.0	4.6	-1.4	3.6	0.7	-0.1	3.7	-9.1	-7.8	-4.4
13. CC(C)CC(=O)NC(=S)Nc1cc(C(=O)O)ccc1Cl
  .	.	.	1.3	-2.7	1.5	1.7	3.6	-4.0	-2.9
14. O=C(/C=C/c1ccc([N+](=O)[O-])cc1)Nc1cccnc1
  .	.	.	4.0	0.1	-5.9	-6.8	-9.1	-19.1	3.2
15. Cc1ccc(N(CC(O)CN2C(=O)NC(C)(C)C2=O)S(=O)(=O)c2ccc([N+](=O)[O-])cc2)cc1 (centres undefined)
  -3.9	7.1	-0.8	-2.0	-1.5	-0.9	-7.5	-19.0	28.4	.
16. Cc1ccc(S(=O)(=O)N(Cc2cccnc2)Cc2cc3ccccc3[nH]c2=O)cc1
  -6.7	-24.4	0.1	-7.2	0.9	-0.4	-11.2	2.1	19.5	-9.5
17. CC(C)C(C(=O)Nc1ncn[nH]1)N1C(=O)c2ccccc2C1=O (centres undefined)
  .	.	.	-6.5	-6.4	-0.5	0.6	-2.7	-7.7	0.6
18. NS(=O)(=O)c1ccc(NC(=O)/C=C/c2ccco2)cc1
  12.6	15.6	-1.3	-0.1	-1.3	0.0	-3.6	95.7*	-10.1	10.6
19. CC(=O)N1N=C(c2ccccc2)CC1c1ccc(F)cc1 (centres undefined)
  -3.5	5.0	-1.5	-2.9	-0.6	0.2	-6.6	-21.1	-3.4	1.9
20. CC(=O)N1CCc2cc(Br)cc(S(=O)(=O)NCc3ccccn3)c21
  .	.	.	3.4	-1.3	-1.1	-11.0	-23.1	15.7	-0.1
21. CCc1nnc(NC(=O)Cn2ccc(C(F)(F)F)n2)s1
  .	.	.	0.5	-0.2	1.1	4.3	-0.5	-6.4	94.6*
22. CCCCN(CC)CCNC(=O)c1cc2c(-c3ccccc3F)nn(C)c2s1
  -1.1	1.7	10.5	-0.5	-3.9	0.1	-0.7	-6.9	37.6	3.1
23. O=c1nc(-c2ccccc2)n(-c2ccccc2)c2ncccc12
  7.7	7.8	3.0	-0.9	.	-0.5	1.3	-6.4	-14.0	-8.8
24. COc1cc(NC(=S)NC(=O)CCc2ccccc2)cc(OC)c1
  -20.4	-16.1	-4.4	-30.2	-6.3	1.6	2.4	-14.8	-16.2	-4.7
25. CN1C(=O)Cc2cc(S(=O)(=O)N3CCOCC3)ccc21
  .	.	.	-3.7	-3.6	-0.8	0.1	7.3	-10.7	7.6
26. Cc1cc(C(=O)N2CCCC(Nc3ccc(F)cc3)C2)n(C)n1 (centres undefined)
  3.9	-1.3	0.2	1.0	-7.1	0.2	-2.6	54.5	1.2	8.2
27. CCC1CSC(Nc2ccc(C(=O)/C=C/c3ccc(Oc4ccccc4)cc3)cc2)=N1 (centres undefined)
  .	.	.	-0.8	56.0	-0.9	-5.4	-0.9	35.5	22.3
28. CCOC(=O)C1CCN(C(=O)CCc2nc3ccccc3[nH]2)CC1
  .	.	.	.	-2.7	0.5	7.0	.	-10.2	1.2
29. CCCc1nc2c(sc3nc4c(cc32)COC(C)(C)C4)c(=O)n1Cc1ccco1
  7.1	1.1	0.5	-7.0	-2.8	1.1	4.9	-5.1	-0.6	3.1
30. Cc1cnc(NC(=O)NCC2CCCC(CNC(=O)Nc3ncc(C)s3)C2)s1 (centres undefined)
  -17.2	-35.4	-6.6	2.6	-6.8	1.2	-7.2	1.5	-2.4	-4.2
31. CC(C)c1ccc(C2NC(=O)c3ccccc3O2)cc1 (centres undefined)
  0.8	-2.9	1.5	-2.3	-1.1	1.1	1.0	.	0.4	-26.1
32. Cc1ccc(C)c(N2CCN(S(=O)(=O)c3ccc(-c4ccc(=O)[nH]n4)o3)CC2)c1
  5.1	5.2	-1.6	3.2	23.3	-0.6	5.0	2.0	9.0	-2.6
33. C[C@H](CO)N1C[C@H](C)[C@@H](CN(C)C(=O)NC2CCCCC2)Oc2c(NS(=O)(=O)c3cccs3)cccc2C1=O
  3.3&7.9	5.5&10.6	-1.9&0.7	4.6	2.1	?	-4.6	-5.1	.	.
34. O=C1NC(=O)/C(=C\c2ccsc2)N1
  10.0	5.7	-0.3	2.6	3.7	-0.1	15.0	-4.1	1.3	-6.2
35. CC1CCN(CCC(=O)Nc2ccccc2)CC1
  19.4	31.1	7.8	-3.4	-3.9	-0.2	-2.1	-0.2	-14.1	-23.6
36. CC(=O)c1ccc(OCc2cc(C(=O)N3CCC(c4ccncc4)CC3)no2)cc1
  -3.6	-19.8	-2.7	-1.8	35.2	0.8	-2.4	0.4	-5.7	-18.9
37. COc1ccc2c(C=Nc3c(C)n(C)n(-c4ccccc4)c3=O)c(O)n(Cc3ccco3)c(=O)c2c1
  .	.	.	-3.4	4.1	0.5	-0.6&14.0	4.6	29.7	1.0
38. O=S(=O)(c1ccccc1)N1CCC(O)(CSc2ccc(F)cc2)CC1
  -22.5	-36.0	-3.3	4.2	9.5	-0.3	7.9	-3.5	7.6	-0.6
39. CN1CCN(C(=O)c2ccc(CNS(=O)(=O)c3cccc(Cl)c3)cc2)CC1
  7.8	4.5	1.0	-7.1	1.4	-0.2	-21.2	-14.5	4.5	-0.8
40. COC(=O)COc1ccc2oc(=O)cc(C)c2c1
  .	.	.	-4.8	-12.8	-0.3	9.1	-2.5	-3.7	-4.0
41. O=C1N(CN2C(=O)C3(OCCO3)c3ccccc32)c2ccccc2C12OCCO2
  .	.	.	4.3	-4.0	-0.6	2.7	-2.6	-10.1	-4.4
42. O=[N+]([O-])c1ccc(CN2CCN(c3ccc(F)cc3)CC2)o1
  9.2	0.5	2.0	4.9	-3.2	0.8	-2.9	62.4	51.8	-15.1
43. CCOc1ccc(-n2cc(C(=O)NC(C)C)c3cc(OC)c(OC)cc3c2=O)cc1
  .	.	.	-0.4	-3.5	2.2	4.4	-2.8	1.0	-16.1
44. O=C(/C=C/c1ccccc1[N+](=O)[O-])c1ccccc1Br
  -51.1	-54.5	-15.4	-7.4	-7.3	-0.1	57.5*	32.1	-15.3	5.0
45. Cc1c(C(=O)N2CCCCC2)sc(NC(=O)C2CC2)c1C#N
  10.1	1.0	8.6	-1.9	-5.5	1.9	-11.0	5.1	-6.7	1.5
46. Cn1c(SCC(=O)N2CCOCC2)nnc1-c1cnccn1
  .	.	.	5.4	-4.7	0.2	-7.9	-19.2	-17.7	3.2
47. O=C(COC(=O)C1CCC1)Nc1ncc(Cl)cc1Cl
  8.4	18.1	1.1	0.1	-3.7	0.2	3.8	-3.9	-9.9	-1.9
48. CC(=O)Nc1ccc(S(=O)(=O)N(C)CC(=O)N(C)Cc2sccc2C)cc1
  4.4	7.7	-2.9	0.7	-3.5	-0.6	-7.9	-1.4	.	.
49. Cc1ccc2c(c1)nnn2C1CCN(CC(=O)NCCc2ccccc2)CC1
  -12.0	-6.1	-4.8	-0.7	-0.9	-0.1	-16.7	2.6	8.5	13.5
50. COc1ccccc1NC(=O)C(C)N1C(=O)c2ccccc2C1=O (centres undefined)
  4.4	2.6	-2.2	-1.8	-5.0	-0.3	0.4	-1.8	2.3	-6.2
51. COc1ccccc1CNC(=O)c1ccc(C)s1
  -9.1	-11.6	-1.5	1.8	-9.2	0.5	11.4	44.0	-4.1	-3.8
52. COc1ccc(NC(=O)C2C3CCC(O3)C2C(=O)O)c(C)c1 (centres undefined)
  10.5	7.3	39.0	0.3	-3.0	0.9	-1.2	-4.1	-1.9	-9.0
53. CCOc1ccc(OCCCC(=O)N(C)CC(=O)Nc2ccccc2Br)cc1
  4.0	-21.8	-0.7	-1.9	6.2	1.4	-0.7	-0.3	.	.
54. O=C(COC(=O)c1ccccc1Cc1ccccc1)Nc1ccc(SC(F)F)cc1
  -3.5	-8.6	2.1	-1.6	0.1	0.1	-9.2	-30.8	-14.2	-2.7
55. CN(Cc1ccccc1)C(=O)c1nc[nH]c1C(=O)N1CCN(C(=O)OC(C)(C)C)CC1
  3.8	1.4	17.1	-8.8	-5.9	1.3	3.7	6.6	.	.
56. O=C(NC1CCCC1)C1CCN(C(=O)c2ccc(Cl)cc2Cl)CC1
  2.2	0.2	-1.0	4.0	1.8	0.1	-3.2	-0.7	-7.6	-1.4

A portion of the library, so the mix of outcomes need not match the whole.
